CtBP-E1A blk = inhibitors of CtBP/E1A interaction | AlphaScreen GST-E1A/His-CtBP binding, 1536-well; active compounds read low; control for the full effect not named in the record | activity change, % (test concentration not listed) | actives 0.49% (n = 340,000) | AID 651724; in the data active means activity change below about -65%; inconclusive means about -30% to -65%; inactive means above about -30%
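GST-E1A and His-tagged CtBP (125 nM each as 5X stock) were preincubated with pin-transferred compound for 2 h at 37 °C in the dark, then glutathione donor and nickel acceptor beads were added for 1 h before AlphaScreen reading.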
Six1-Eya2 inh = blocks human Six1 binding to Eya2. Q15475+O00167. AlphaScreen GST-Six1/His-Eya2 binding, biochemical; active compounds read low; control for the full effect not named in the record. activity change, % (no concentration beside the values). actives 0.56% (n = 360,000); in the data active = activity change below about -65%; inconclusive = about -30% to -65%; inactive = above about -30%
Target sequence (O00167 whole entry, looked up): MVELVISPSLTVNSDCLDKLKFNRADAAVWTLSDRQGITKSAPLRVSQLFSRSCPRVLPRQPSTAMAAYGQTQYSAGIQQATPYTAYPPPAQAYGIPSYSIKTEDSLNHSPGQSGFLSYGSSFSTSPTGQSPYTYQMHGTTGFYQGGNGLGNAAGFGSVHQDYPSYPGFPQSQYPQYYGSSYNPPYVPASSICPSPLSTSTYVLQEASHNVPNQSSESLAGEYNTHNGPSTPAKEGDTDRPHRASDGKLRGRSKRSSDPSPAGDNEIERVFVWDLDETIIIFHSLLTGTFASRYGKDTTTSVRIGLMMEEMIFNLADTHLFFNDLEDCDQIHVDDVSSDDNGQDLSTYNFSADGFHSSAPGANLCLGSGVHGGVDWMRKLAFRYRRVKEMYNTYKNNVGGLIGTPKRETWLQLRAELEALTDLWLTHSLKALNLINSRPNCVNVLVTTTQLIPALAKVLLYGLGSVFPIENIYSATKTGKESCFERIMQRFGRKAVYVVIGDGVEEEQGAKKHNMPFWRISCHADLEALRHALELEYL
Target sequence (Q15475 whole entry, looked up): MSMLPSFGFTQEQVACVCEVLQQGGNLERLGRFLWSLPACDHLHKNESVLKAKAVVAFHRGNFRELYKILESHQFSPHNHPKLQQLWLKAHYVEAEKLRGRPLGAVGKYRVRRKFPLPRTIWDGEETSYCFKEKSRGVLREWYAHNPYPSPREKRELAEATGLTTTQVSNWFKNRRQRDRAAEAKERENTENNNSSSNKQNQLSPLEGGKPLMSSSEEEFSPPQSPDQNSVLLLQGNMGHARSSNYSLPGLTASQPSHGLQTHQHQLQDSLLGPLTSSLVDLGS
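Six1/Eya2 binding was read as AlphaScreen signal after compounds were pinned into GST-Six1 plus His-tagged Eya2 (5X stock 250/500 nM) in pH 8.0 Tris/NaCl/TCEP buffer, beads added, then incubated 1 h, 37 C, dark.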
The depositor's hits bear a star; ? = inconclusive. % is set by controls: 0 for no effect and ±100 for the full control effect. Some of the compounds tested. The share of hits here may be higher or lower than overall.

Six1-Eya2 inh,CtBP-E1A blk,Compound
-1.1,6.0,CCOC(=O)[C@]12CCC=C1N(Cc1ccccc1)C(=O)[C@H](CC(=O)NCc1ccc(OC)c(OC)c1)C2
-2.9,0.9,CC(C)C[C@@H]1O[C@H](CCc2ccccc2)Cc2[nH][nH]c(=O)c21
-9.8,-3.9,CC(C)(C)OC(=O)N1CCN(C(c2ccnc3ccccc23)c2nnnn2-c2ccc3c(c2)OCCO3)CC1 (stereo not given)
6.7,6.5,COC(=O)C[C@@H]1CC[C@@H](NC(=O)c2ccccc2F)[C@@H](CO)O1
-14.1,3.1,CCCCn1nnnc1C1(C)CCC(=O)N1Cc1ccc(OC)c(OC)c1 (stereo not given)
23.8,-1.1,CNC(=O)OCc1cocc1COC(=O)NC
10.5,4.0,CC(C)C[C@H]1CN([C@@H](Cc2ccccc2)CN2CCC[C@H]2CN2C(=O)C(=O)NC[C@@H]2Cc2ccc(O)cc2)C(=O)C(=O)N1CC1CCCCC1
-7.9,-7.5,N#Cc1cccc(C(=O)C(=O)N2CCC(Cc3ccccc3)CC2)c1
3.7,-24.5,COC(=O)[C@@]1(Cc2ccc(F)cc2)[C@H]2c3cc(C(=O)N4CCCC4)n(CCN4CCNC4=O)c3C[C@H]2CN1C(=O)c1ccccc1
0.6,2.2,O=C(NC1CCCCC1)C1c2ccccc2OCC(=O)N1C1CC1 (stereo not given)
-0.7,7.9,CC(=O)C[C@@H]1OC[C@H](C)N1S(=O)(=O)c1ccc(C)cc1
-4.0,3.2,O=C(NC1CCCC1)C1c2ccccc2OCC(=O)N1Cc1ccco1 (stereo not given)
9.2,4.3,COc1ccc(S(=O)(=O)N2CCC[C@H]2C(=O)N2CCC[C@H]2C(=O)NCc2ccccn2)cc1C
-2.4,3.2,COC1=CC(=O)OC(c2ccc(C#N)cc2)C1 (stereo not given)
2.9,6.1,O=C1NC[C@@H](CCCCN2CCN(CC3CCCCC3)C(=O)C2=O)N(CCC2CCCCC2)C1=O
0.7,7.3,CS(=O)(=O)N1Cc2cc(C(=O)NCC3CC3)nc(-c3cccc(-c4cccnc4)c3)c2[C@@H]1CCO

Seven records picked at random from the list so far, as already listed:
Six1-Eya2 inh,CtBP-E1A blk,Compound
3.7,-24.5,COC(=O)[C@@]1(Cc2ccc(F)cc2)[C@H]2c3cc(C(=O)N4CCCC4)n(CCN4CCNC4=O)c3C[C@H]2CN1C(=O)c1ccccc1
-2.4,3.2,COC1=CC(=O)OC(c2ccc(C#N)cc2)C1 (stereo not given)
-4.0,3.2,O=C(NC1CCCC1)C1c2ccccc2OCC(=O)N1Cc1ccco1 (stereo not given)
9.2,4.3,COc1ccc(S(=O)(=O)N2CCC[C@H]2C(=O)N2CCC[C@H]2C(=O)NCc2ccccn2)cc1C
2.9,6.1,O=C1NC[C@@H](CCCCN2CCN(CC3CCCCC3)C(=O)C2=O)N(CCC2CCCCC2)C1=O
0.6,2.2,O=C(NC1CCCCC1)C1c2ccccc2OCC(=O)N1C1CC1 (stereo not given)
0.7,7.3,CS(=O)(=O)N1Cc2cc(C(=O)NCC3CC3)nc(-c3cccc(-c4cccnc4)c3)c2[C@@H]1CCO

Other compounds follow.
Six1-Eya2 inh,CtBP-E1A blk,Compound
-4.5,0.7,O=C1NC[C@H](CCCCN2CCN(CCc3ccccc3)C(=O)C2=O)N(CC2CCCCC2)C1=O
-5.1,3.6,CCOC(=O)[C@]12CCCC=C1N(CCC1=CCCCC1)C(=O)[C@H](CC(=O)NCc1cccs1)C2
-2.8,3.9,COC(=O)[C@]12CCCCC=C1N(Cc1ccco1)C(=O)[C@H](CC(=O)N1CCN(C(=O)c3ccco3)CC1)C2
0.1,-2.1,N#Cc1cccc(OCCCN2CCC(C(O)(c3ccccc3)c3ccccc3)CC2)c1
7.2,8.1,O=C1NC[C@H](CCCCN2C[C@H](Cc3ccccc3)N(CC3CCCCC3)C(=O)C2=O)N(CCC2CCCCC2)C1=O
-7.4,-4.1,COc1ccc(SCC(O)Cn2c3ccccc3c3ccccc32)c(OC)c1 (stereo not given)
1.8,-1.0,CCOC(=O)[C@]12CCCC=C1N(Cc1ccc(Cl)cc1Cl)C(=O)[C@H](CC(=O)NCc1cccc(C(F)(F)F)c1)C2
18.2,-19.3,Cc1cc2nc(C(C)(C)C)c(Cc3cccc(Cl)c3)n2c(C)c1Br
-10.7,0.5,O=C1NC[C@H](Cc2ccccc2)N(C[C@@H]2CCCN2C[C@H](Cc2ccc(O)cc2)N2C[C@H](Cc3ccc(O)cc3)N(CC3CCCCC3)C(=O)C2=O)C1=O
2.0,2.1,Cc1ccc(S(=O)(=O)N2CC3=C(C2)C2CC2(C)C3)cc1 (stereo not given)
-3.2,2.0,Cc1ccccc1CN1C(=O)CSCC1(C)C(=O)Nc1c(C)cccc1C (stereo not given)
1.6,8.4,CCCCn1nnnc1C(c1cc2ccccc2o1)N1CCCC1 (stereo not given)
4.7,-12.4,CCCCCCCCN1C(=O)[C@H](CC(=O)NCCc2ccccc2OC)C[C@@]2(C(=O)OCC)CCC=C12
-2.3,0.0,CCc1c(-c2cccc(Cl)c2)ncn1Cc1cccc(-c2ccccc2)c1
0.3,1.3,CC(C)CN1C(=O)c2ccccc2C1c1nnnn1-c1ccc2c(c1)OCCO2 (stereo not given)
6.9,2.9,O=C(C[C@H]1CC[C@H]2[C@@H](COC[C@@H](O)CN2C(=O)c2cnccn2)O1)NCc1ccc(Oc2ccccc2)cc1
3.8,0.4,CCCCn1nnnc1C(c1ccccc1)N1CCN(C(=O)c2ccco2)CC1 (stereo not given)
-1.0,4.9,Cc1cc2nc(C3CCCCC3)c(Cc3cccc(Cl)c3)n2c(C)c1Br
?,-26.3,CCCCC[C@@H](C)N1C[C@H](COCc2ccccc2)Oc2cc(N3CC[C@H](N(C)C)C3)ccc2S1(=O)=O
-13.5,-4.3,C1=C[C@H]2CCCN3CC[C@@H]([C@@H]2[C@]32CO2)[C@H]1CCOCc1ccccc1
-10.5,-11.9,COC(=O)[C@]12CCCCC=C1N(Cc1ccco1)C(=O)[C@H](CC(=O)NCc1cccc3ccccc13)C2
-0.3,-1.2,COc1ccc(CN2C(=O)c3cccc4cccc(c34)C2c2nc3ccccc3[nH]2)cc1 (stereo not given)
3.1,-22.5,O=C(NCc1ccc(F)cc1F)[C@@H]1CCCN1C(=O)[C@@H]1CCCN1
3.9,0.6,C=CCC[C@H](CCCCC)OC(=O)/C=C/[C@H](O)[C@@H](O)C[C@H](O)CC=C
2.4,-6.7,COc1cccc(CNC(=O)[C@@H]2CCCN2C(=O)[C@H]2CCCCN2C(=O)c2c(F)cccc2F)c1
3.3,1.3,CCCCCCCCN1C(=O)[C@H](CC(=O)NCCC(C)C)C[C@@]2(C(=O)OC)CCCCC=C12
3.4,-21.1,CCOC(=O)Cc1c(-c2cccc(Br)c2)nc2c3ccccc3ccn12
-2.2,4.5,O=C1NC[C@@H](CCCCN2C[C@H](Cc3ccc(O)cc3)N(Cc3ccccc3)C(=O)C2=O)N(CCC2CCCCC2)C1=O
4.3,4.9,CC1(C)Cc2cccc(OC(=O)NC3CCCCC3)c2O1
-1.6,0.0,Cc1ccc2ccc(C(Nc3ccccc3)c3ccc(C(C)C)cc3)c(O)c2n1 (stereo not given)
31.8,22.8,CCOC(=O)c1ccc(-c2ccc(N3C(c4cccc(OC)c4)=Cc4ccc(F)cc4C3CC(C)=O)cc2)cc1F (stereo not given)
-19.7,-0.1,COC(=O)[C@@]1(Cc2ccc(F)cc2)[C@H]2c3cc(C(=O)N(C)C)n(CCc4c[nH]c5ccc(O)cc45)c3C[C@H]2CN1C(=O)c1ccccc1
-7.8,4.1,CCCCCCCCN1C(=O)[C@H](CC(=O)N2CCCC2)C[C@@]2(C(=O)OC)CCCCC=C12
-2.0,0.3,COC(=O)[C@]12CCCCC=C1N(CCC1=CCCCC1)C(=O)[C@H](CC(=O)N1CCN(C(=O)c3ccco3)CC1)C2
-11.1,-3.3,Cc1ccc([N+](=O)[O-])cc1CN1CCN(c2ncc(Cc3ccccc3)cn2)CC1
13.0,18.2,O=C1NC[C@H](CCCCN2C[C@H](Cc3ccc(O)cc3)N(CCc3ccc(O)cc3)C(=O)C2=O)N(CC2CCCCC2)C1=O
3.7,1.4,CC1(c2nnnn2Cc2ccccc2)CCC(=O)N1Cc1cccnc1 (stereo not given)
-14.3,-13.0,CCCCCCCCN1C(=O)[C@H](CC(=O)NCc2ccc(OC)c(OC)c2)C[C@@]2(C(=O)OC)CCCCC=C12
4.6,7.1,COc1ccc(OC)c(N2C(=O)c3ccccc3C2c2nnnn2-c2ccc3c(c2)OCCO3)c1 (stereo not given)
5.6,-2.1,CC(C)NC(=O)N[C@H]1CC[C@H](CC(=O)NCc2ccc(Oc3ccccc3)cc2)O[C@@H]1CO
0.0,-3.0,CCOC(=O)N1CCN(C(C(=O)NC2CCCC2)c2cccc(OC)c2OC)CC1 (stereo not given)
3.4,5.9,O=C(NCc1ccncc1)[C@@H]1CCCN1C(=O)[C@@H]1CCCN1C(=O)c1c(F)cccc1F
1.2,6.7,CC(C)(C)NC(=O)C1c2ccccc2OCC(=O)N1Cc1ccccn1 (stereo not given)
-4.7,-1.1,COc1ccc(-c2c(-c3ccsc3)oc3c2C(O)CCC3)cn1 (stereo not given)
5.9,-6.4,Cc1ccc(S(=O)(=O)NCc2ccccc2Br)cc1
7.3,7.1,COC(=O)C[C@H]1C=C[C@@H](NC(=O)NC2CCCCC2)[C@@H](CO)O1
-19.1,-14.8,CC(C)=CCC[C@H](C)C[C@@H]1Cc2[nH][nH]c(=O)c2[C@H](c2ccc(F)cc2)O1
-10.1,1.3,CCCCCCCCN1C(=O)[C@H](CC(=O)NCCCCc2ccccc2)C[C@@]2(C(=O)OC)CC(C)(C)CC=C12

Single records, from the list above. Screens in order: Six1-Eya2 inh	CtBP-E1A blk
COc1ccc(-c2c(-c3ccsc3)oc3c2C(O)CCC3)cn1 (stereo not given) reads -4.7	-1.1
Cc1ccc(S(=O)(=O)NCc2ccccc2Br)cc1 reads 5.9	-6.4

(listing goes on)
Six1-Eya2 inh,CtBP-E1A blk,Compound
-10.8,-15.7,CCOC(=O)[C@]12CCCC=C1N(Cc1ccc(Cl)cc1Cl)C(=O)[C@H](CC(=O)NCc1ccccc1)C2
35.1,29.0,Cc1cccc(C)c1NC(=O)C(c1cccc2ccccc12)n1c(=O)c(-c2cc3ccccc3[nH]2)nc2ccccc21 (stereo not given)
11.3,0.6,O=[N+]([O-])c1cnccc1-n1nnc2ccccc21
4.7,14.7,O=C1NC[C@@H](CCCCN2C[C@H](Cc3ccccc3)N(CCc3ccccc3)C(=O)C2=O)N(CCc2ccccc2)C1=O
-3.1,-0.1,CC(C)(C)C(=O)c1c(N)[nH]c(C(=O)c2ccccc2)c1-c1ccc(C(F)(F)F)cc1
5.4,-18.2,CSC12CCCN(CCC(C(C)(C)C)C1)C2=O (stereo not given)
3.2,4.3,COC(=O)C[C@H]1CC[C@@H](NS(=O)(=O)c2ccc(C)cc2)[C@@H](CO)O1
18.1,-5.8,COC(=O)[C@@]1(Cc2ccc(F)cc2)[C@H]2c3cc(C(=O)N(C)C)n(CC4CC4)c3C[C@H]2CN1C(=O)c1ccccc1
6.4,-2.5,CC1=C2CCCC[C@@]23C2C(=O)N(C)C(=O)[C@@H]2ON3OC1 (stereo not given in full)
-11.4,-4.8,Oc1ccc(C[C@@H](CN2CCCC2CN2C(=S)NC[C@@H]2Cc2ccccc2)N2C[C@H](Cc3ccccc3)N(CC3CCCCCC3)C2=S)cc1 (stereo not given in full)
-3.2,5.1,COC(=O)C[C@H]1CC[C@@H](NC(=O)Nc2c(C)noc2C)[C@@H](CO)O1
0.2,5.0,CC(C)C[C@@H]1CN(CCCC[C@H]2CNC(=O)C(=O)N2CCC2CCCCC2)C(=O)C(=O)N1CCC1CCCCC1
-3.8,2.6,CCCCn1nnnc1C1(C)CCC(=O)N1CCc1c[nH]c2ccccc12 (stereo not given)
1.5,-1.0,O=C(/C=C1\OCc2ccccc21)OCc1ccccc1
-13.8,-5.1,CCCCCc1c(-c2cccc(OC)c2)ncn1CCc1ccccc1OC
15.9,-19.3,O=C(C[C@H]1C=C[C@H](NC(=O)c2ccccn2)[C@@H](CO)O1)NCc1cc(F)cc(F)c1
-8.3,-1.0,COC(=O)[C@@]12C[C@@H](CC(=O)N3CCN(C(=O)c4ccco4)CC3)C(=O)N(Cc3ccccc3)C1=CCC(C)(C)C2
15.2,24.1,O=C(C[n+]1cccc(C(=O)Nc2ccccc2)c1)c1ccc(Cl)cc1
3.1,6.6,CCN(C)C1CN(Cc2cn(CCCC(=O)OC)nn2)S(=O)(=O)C1 (stereo not given)
12.7,3.4,CC1(C)OC(=O)C2=C(C[C@@H](C3CCCCC3)O[C@H]2c2ccccc2)O1
0.0,0.6,COc1ccc([C@H]2CC(=O)C[C@@H](CCn3cc(-c4nccn4C)nn3)O2)cc1
-4.7,0.0,CC1(C(=O)NCc2ccccc2)CSCC(=O)N1CCCn1ccnc1 (stereo not given)
17.0,29.2,COc1ccc(OC)c(CN2C(=O)c3ccccc3C2c2nnnn2C2CCCC2)c1 (stereo not given)

Screens: PubChem, National Center for Advancing Translational Sciences (NCATS)
